Bead autofluor – compound fluorescence in toxin protease inhibitor counterscreen | 360,000 compounds, 3.1% hits | compound autofluorescence counterscreen, microsphere flow cytometry; stronger effect = higher value | AID 624483 | fluorescence intensity (no concentration beside the values);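 active means at least 3 SD above the mean of all compounds, about 16000 in these data; inconclusive means too few beads counted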;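 further: 100 nL of 1 mM stock went into each well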
Mtb hypoxia rep – PubChem AID 1159583; M. tuberculosis hypoxia-regulated fluorescent reporter, fluorescence; 300,000 compounds, 0.1% hits; fluorescence inhibition, % (concentration not given with the values);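 active means 35 to 45% if threefold the growth effect, above 45% if 1.5-fold the growth effect; inactive means the rest, general growth blockers included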;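 further: wells of about 50 µL received 100 nL stock; 0% = vehicle wells and 100% = reference inhibitor wells; whole bacteria with a GFP reporter of the hypoxia response; strong numbers were not always called active; many hits fall short of the cut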
ugtP null kill – growth inhibition of ugtP-null S. aureus, primary screen, RN4220 ugtP deletion, OD600 | 16 h; some inactives read as strong as hits | growth inhibition, % (test concentration not listed) | 330,000 compounds, 0.54% hits | AID 1259309, 2017;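 active means z-score under -3 and OD600 up to 0.15 on both plates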;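 further: plate controls were untreated wells for no effect and antibiotic for full effect; wells of about 80 µL received 100 nL stock; the first replicate is given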
BJeLR viability – MLPCN primary cell-based screen for lethality selective to Ras in HRASV12 cells. BJeLR (HRASV12) viability, CellTiter-Glo ATP luminescence, 48 h; reference of the scale not given here. inhibition, % (test concentration not listed). 300,000 compounds, 0.17% hits. AID 1554, 2009;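 active means replicate mean above 50%; inconclusive means above 50% but judged a plate artefact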;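 further: 50 nL library stock added to about 25 µL; numbers are from one replicate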
PrP 5UTR inh – inhibition of PrP 5' UTR reporter expression; cell-based PrP 5' UTR mRNA reporter, plate reader; AID 488862, 2010; inhibition, % (concentration not given with the values); 340,000 compounds, 0.35% hits;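 active means every replicate at 50% or more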;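 further: 0 = median of the neutral control wells; tested in H4 reporter cells; numbers are from one replicate; inactives centre near -14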
Sa RN4220 lethal – growth inhibition of S. aureus RN4220, primary screen, OD600; 16 h; 330,000 compounds, 0.33% hits; inhibition, % (concentration not given with the values);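 active means z-score of -3 or lower and OD600 up to 0.18 on both plates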;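 further: plate controls were untreated cells for no effect and reference antibiotic for full effect; stock transfer was 100 nL into about 80 µL; one replicate is shown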
Mtb hypoxia rep growth – further read-out of Mtb hypoxia rep, marked with its call; growth inhibition, %; measured here: M. tuberculosis growth (absorbance);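 0% = vehicle and 100% = reference antibiotic; read after six days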
Numbers without * were called inactive; ? = inconclusive; . = not tested or not shown.

no.	smiles	Bead autofluor	Mtb hypoxia rep	Mtb hypoxia rep growth	ugtP null kill
1	C=CCN(c1ccccc1C(=O)O)S(=O)(=O)c1ccc(C)cc1	4601	1.7	0.9	0.5
2	CCCN1C(=O)C(Cc2nc3ccccc3c(=O)n2C)c2ccccc21 (stereo not given)	4650	.	.	-2.9
3	Nc1nc2c(s1)CC(c1ccccc1)CC2 (stereo not given)	5818	.	.	-3.7
4	CCCn1c2ccccc2c2cnn(CC(=O)NCCCN3CCN(c4ccccc4)CC3)c(=O)c21	5448	1.6	5.2	14.9
5	CCn1cc(CNC(=O)CSc2nc(-c3ccc(OC)c(OC)c3)cc(C(F)(F)F)n2)c(C)n1	1949	-0.3	10.2	5.6
6	C=CCn1c(SCC(=O)Nc2cc(C)ccc2OC)nnc1-c1ccco1	3117	6.4	8.2	1.5
7	CC(C)Oc1cccc(C(=O)N2CCCC2)c1	2751	.	.	-6.4
8	NS(=O)(=O)c1ccc(Sc2ccccn2)c([N+](=O)[O-])c1	4296	.	.	.
9	Cc1ncsc1C(=O)Nc1nc2c(s1)CC(C)CC2 (stereo not given)	16464*	2.3	8.6	-4.5
10	CN(CC(=O)Nc1cccc(F)c1)C(=O)c1cc(-c2ccccc2)nc2ccccc12	6023	-3.5	10.3	-6.9

no.	BJeLR viability	PrP 5UTR inh	Sa RN4220 lethal
1	4.6	-21.9	7.8
2	8.8	-14.8	-2.8
3	6.2	-23.1	-3.9
4	13.1	-20.6	3.9
5	2.6	-0.8	3.7
6	-6.8	4.5	2.0
7	-1.3	-3.0	4.5
8	-3.0	-12.4	.
9	9.2	-127.7	1.7
10	-2.3	1.7	-5.5

A few values from the entries so far:
In BJeLR viability, compound 7 reads -1.3
In PrP 5UTR inh, compound 3 reads -23.1
In Bead autofluor, compound 5 reads 1949
In Mtb hypoxia rep growth, compound 10 reads 10.3
In Bead autofluor, compound 8 reads 4296

Further structures follow.
no.	smiles	Bead autofluor	Mtb hypoxia rep	Mtb hypoxia rep growth	ugtP null kill
11	COc1ccc(-c2[nH]ncc2C=NNC(=O)c2ccncc2)c(OC)c1	.	.	.	9.7
12	CC(=NNC(=O)c1cc(C)nc2ccccc12)c1ccco1	.	5.2	8.0	0.1
13	COCCNC(=O)c1cc2nc(-c3ccccc3)cc(C)n2n1	3335	10.2	9.0	2.8
14	COc1cccc(C=NNC(=O)c2ccncc2)c1OC(=O)c1ccc(Br)cc1	.	6.8	-3.7	7.7
15	COc1ccc(S(=O)(=O)N2CCN(C)CC2c2ccccc2)cc1 (stereo not given)	3964	3.9	1.9	6.9
16	O=C(NN1CCN(Cc2ccccc2)CC1)c1ccc(Cl)cc1	4708	14.3	-1.0	4.9
17	COc1ccc(/C=N\NC(=O)c2ccc(Cn3cc(Br)c([N+](=O)[O-])n3)o2)c(OC)c1C	2020	.	.	.
18	CCOC(=O)Cc1nnc(Nc2cccc(C)c2)c2ccccc12	6825	-0.3	-3.7	-0.8
19	O=C(Nc1ccc(OC(F)(F)F)cc1)Nc1cccc([N+](=O)[O-])c1	10997	1.4	2.9	99.7*
20	CN(CC(=O)Nc1ccc(N2CCOCC2)cc1)C(=O)CCCOc1ccc(Cl)cc1Cl	6274	2.5	0.5	-1.1

no.	BJeLR viability	PrP 5UTR inh	Sa RN4220 lethal
11	.	.	0.1
12	.	.	8.6
13	-5.2	-14.5	10.2
14	.	.	3.8
15	.	10.4	4.3
16	-7.1	-24.2	5.8
17	3.2	-15.0	.
18	-10.8	4.0	-2.7
19	3.3	-34.6	100.0*
20	6.4	1.9	0.6

Other structures
no.	smiles	Bead autofluor	Mtb hypoxia rep	Mtb hypoxia rep growth	ugtP null kill
21	CCOc1ccc2c(CC)cc(=O)oc2c1OCC	6992	6.3	7.9	1.8
22	Cc1ccc(S(=O)(=O)N2CCC(C(=O)NNC(=O)c3ccncc3)CC2)cc1	4368	9.1	0.7	21.3
23	O=C(OCC(=O)N1CCc2ccccc21)c1cccnc1	3875	4.6	8.2	2.3
24	Cc1ccc(S(=O)(=O)NC(Cc2ccc(Cl)cc2)C(=O)O)cc1 (stereo not given)	3820	-4.8	8.0	-1.6
25	COC(=O)CSC1=C(C#N)C(c2sccc2C)CC(=O)N1 (stereo not given)	4343	.	.	-4.6
26	CC(=O)N1CCc2c(sc(NC(=O)Cc3ccccc3)c2C#N)C1	5894	-4.6	3.4	5.9
27	COc1ccccc1N=C1SCC(=O)N1c1ccccc1OC	2584	7.6	11.4	-0.1
28	COc1ccccc1N(CC(=O)Nc1c(C)n(C)n(-c2ccccc2)c1=O)S(=O)(=O)c1ccccc1	3283	11.7	4.8	1.4
29	CCN1CCOC(c2ccccc2)C1 (stereo not given)	3824	4.0	3.8	3.2
30	Cc1csc(NC(=O)C2CCN(C(=O)CSc3nnc(C)n3Cc3ccccc3)CC2)n1	20510*	-15.8	1.7	-6.3

no.	BJeLR viability	PrP 5UTR inh	Sa RN4220 lethal
21	-2.2	-16.2	10.5
22	4.8	-17.4	6.4
23	-6.2	-0.8	2.4
24	-12.9	-15.4	1.4
25	3.1	-31.1	-0.3
26	2.1	-6.1	4.2
27	-8.9	-39.0	3.9
28	.	-4.9	3.5
29	.	-25.6	2.1
30	3.2	-4.7	-7.0

More compounds
no.	smiles	Bead autofluor	Mtb hypoxia rep	Mtb hypoxia rep growth	ugtP null kill
31	FC(F)(F)c1ccc(/C=N/n2c(C3CCCCC3)n[nH]c2=S)cc1	3012	.	.	.
32	CN(C)c1ccc(CN(CC2CCCO2)C(=O)c2cccs2)cc1 (stereo not given)	5607	-1.3	11.8	2.9
33	Cc1occc(=O)c1OCc1ccc(F)cc1	4188	7.1	-2.0	5.8
34	O=C(Nc1cnc2ccccc2c1)C1COc2ccccc2O1 (stereo not given)	2898	8.2	7.5	-2.2
35	CN(CCOc1ccccc1)C(=O)c1ccc(OC2CCN(C(=O)C3CC3)CC2)cc1	4160	-8.7	9.2	1.2
36	CCn1c(SCC(=O)Nc2ccc3c(c2)OCCO3)nnc1-c1ccncc1	3818	10.2	8.1	5.5
37	O=C(COc1ccc(C=NNS(=O)(=O)c2ccccc2)cc1)NCCc1ccccc1	.	11.8	4.1	1.8
38	Cc1ccc(S(=O)(=O)N2C(c3cccs3)CC=C(C(=O)O)C2c2ccccc2F)cc1 (stereo not given)	.	2.2	2.2	-5.5
39	O=C1NC2=C(C(=O)CCC2)C(c2cccc([N+](=O)[O-])c2)N1 (stereo not given)	3414	16.0	2.7	5.4
40	OC(c1cc(-c2ccc(Cl)cc2)nc2ccccc12)C1CCCCN1 (stereo not given)	4347	.	.	.

no.	BJeLR viability	PrP 5UTR inh	Sa RN4220 lethal
31	7.7	-9.8	.
32	4.8	-13.4	1.1
33	9.2	-8.3	4.1
34	-3.4	-70.6	0.1
35	-2.0	-16.4	3.7
36	-6.8	-23.8	5.7
37	.	.	7.8
38	.	.	19.3
39	-8.0	-18.9	-0.3
40	125.7*	-16.9	.

Other results follow.
no.	smiles	Bead autofluor	Mtb hypoxia rep	Mtb hypoxia rep growth	ugtP null kill
41	CSc1cccc(NC(=O)CN(c2cccc(C)c2)S(C)(=O)=O)c1	?	6.4	-1.8	-3.9
42	O=C(Nc1ccc(Cl)cc1)c1cncs1	3180	16.1	6.6	0.0
43	CC(=O)Nc1cccc(C(=O)OCC(=O)Nc2c(C)nn(-c3ccccc3)c2C)c1	.	-8.2	-3.4	3.0
44	N/C(Cn1cncn1)=N\OC(=O)c1ccc(Cl)cc1Cl	2630	-0.7	11.1	-0.6
45	CC(C)c1c(C(=O)NN=Cc2cccc(OCc3ccccc3)c2)nnn1-c1nonc1N	.	-3.7	-5.1	15.6
46	Cc1nn(-c2ccccc2)nc1CNC(=O)CC(C)(C)C	4474	4.7	8.8	3.9
47	Cc1ccc(C(=O)NCCCNCCCNC(=O)c2ccc(C)nc2)cn1	4492	-10.7	-0.4	0.6
48	COc1ccc(OC)c(-c2[nH]nc3c2C(c2ccco2)C(C#N)=C(N)O3)c1 (stereo not given)	2594	.	.	-1.9
49	COc1ccc(S(=O)(=O)Cc2ccc(C(=O)NC(C)C)o2)cc1	4478	.	.	-3.3
50	CCOC(=O)c1c(C)[nH]c(C)c1S(=O)(=O)N(C)Cc1ccco1	6082	2.4	-2.7	2.7

no.	BJeLR viability	PrP 5UTR inh	Sa RN4220 lethal
41	7.6	-8.7	4.2
42	3.9	-19.7	-1.7
43	-7.4	1.5	-0.3
44	-4.0	-19.5	5.8
45	.	.	30.3
46	-12.0	-21.1	-0.4
47	-4.5	-9.3	-2.2
48	-5.6	-121.7	-1.0
49	-3.1	-67.9	0.4
50	7.2	-12.5	3.1

Next entries:
no.	smiles	Bead autofluor	Mtb hypoxia rep	Mtb hypoxia rep growth	ugtP null kill
51	O=C(NNC(=S)NCC1CCCO1)c1cccc(S(=O)(=O)N2CCOCC2)c1 (stereo not given)	4939	1.3	2.0	3.7
52	CCOC(=O)c1oc2ccccc2c1CN1CCN(C)CC1	3320	4.8	8.5	-4.2
53	Cn1ccnc1SCC(=O)c1ccc(F)cc1	3401	1.3	1.6	10.5
54	CC(C)(C)c1ccc(C(=O)N2CCN(CCNC(=O)C(=O)NCc3ccccc3)CC2)cc1	2486	10.0	2.3	14.4
55	COc1ccc([C@H]2[C@@H](C#N)[C@H](C#N)N3CCCN23)cc1	9770	5.9	4.3	-0.8
56	COc1nccc(-c2ccc(F)cc2)c1C#N	2501	8.9	0.9	1.5
57	Cc1nc2cc(Cl)c([N+](=O)[O-])cc2s1	3220	6.9	4.1	6.0
58	Cc1ccc(S(=O)(=O)CCC(=O)OCC(=O)c2ccc(F)cc2)cc1	5415	8.7	-1.5	2.2
59	CC1=CCC2C(=O)N(c3ccc(C(=O)Nc4ccccc4Cl)cc3)C(=O)C2C1 (stereo not given)	4010	5.3	0.4	9.5
60	O=C(c1ccnc(Cl)c1)N1CCCC(N2CCN(c3ccccc3F)CC2)C1 (stereo not given)	4683	7.5	-2.3	7.7

no.	BJeLR viability	PrP 5UTR inh	Sa RN4220 lethal
51	-6.8	0.4	12.4
52	2.4	3.5	-6.8
53	-15.4	.	2.9
54	4.5	-0.7	6.1
55	-7.9	-10.7	1.0
56	-1.6	-1.1	7.7
57	0.6	2.6	4.8
58	1.4	-26.5	5.3
59	-6.4	-4.7	-1.0
60	8.0	-2.6	2.9

Looked up by structure from the entries so far, 5 records:
no.	smiles	Bead autofluor	Mtb hypoxia rep	Mtb hypoxia rep growth	ugtP null kill
58	Cc1ccc(S(=O)(=O)CCC(=O)OCC(=O)c2ccc(F)cc2)cc1	5415	8.7	-1.5	2.2
52	CCOC(=O)c1oc2ccccc2c1CN1CCN(C)CC1	3320	4.8	8.5	-4.2
60	O=C(c1ccnc(Cl)c1)N1CCCC(N2CCN(c3ccccc3F)CC2)C1 (stereo not given)	4683	7.5	-2.3	7.7
55	COc1ccc([C@H]2[C@@H](C#N)[C@H](C#N)N3CCCN23)cc1	9770	5.9	4.3	-0.8
51	O=C(NNC(=S)NCC1CCCO1)c1cccc(S(=O)(=O)N2CCOCC2)c1 (stereo not given)	4939	1.3	2.0	3.7

no.	BJeLR viability	PrP 5UTR inh	Sa RN4220 lethal
58	1.4	-26.5	5.3
52	2.4	3.5	-6.8
60	8.0	-2.6	2.9
55	-7.9	-10.7	1.0
51	-6.8	0.4	12.4

More compounds.
no.	smiles	Bead autofluor	Mtb hypoxia rep	Mtb hypoxia rep growth	ugtP null kill
61	C=CCn1cc(C(=O)NCCOC)c(=O)c2cc(S(=O)(=O)N3CCCCCC3)ccc21	5205	-1.0	8.4	-2.1
62	COc1ccc(C2=NO[C@@H]3C(=O)N(c4c(C)cccc4C)C(=O)[C@H]23)cc1OC	22305*	-0.7	-1.3	-6.9
63	C#CCOC(=O)C1C2C=CC(C2)C1C(=O)O (stereo not given)	9153	5.2	6.2	12.5
64	Cn1c(=O)c2c(O)c(Cc3ccccc3)c(=O)[nH]c2n(C)c1=O	8670	-1.8	-2.6	-4.1
65	COCCNC(=O)Cn1nc(-c2ccccc2F)ccc1=O	3560	-3.4	-7.3	1.9
66	Cc1cc(NC(=O)COc2ccccc2C)ccc1NC(=O)c1ccco1	3081	2.9	1.1	3.5
67	CSc1nnc(CCCCCNC(=O)OC(C)(C)C)o1	4067	6.5	15.9	-4.3
68	COC(=O)c1c(C)[nH]c(C=Nc2ccc(OC)cc2)c1C	3792	3.5	2.1	10.9

no.	BJeLR viability	PrP 5UTR inh	Sa RN4220 lethal
61	8.3	4.7	5.6
62	-10.3	-2.3	2.1
63	-3.4	-19.3	7.3
64	6.2	-3.8	31.7
65	-0.6	-17.4	-1.0
66	1.5	-20.7	2.6
67	-5.8	38.3	4.9
68	-2.3	-0.1	2.6

High-throughput results (PubChem)
